Rango dissoc inh – inhibition of RanGTP-driven Rango-importin beta dissociation | O95149+P62826 | AID 540253 | Potency, µM (doses to about 46.1 µM), inactives show at the highest dose activity change, negative = inhibition | Biochemical FRET Rango-importin beta, RanGTP-induced dissociation | 0.071% of 340,000 active; active means falling FRET ratio curve, often poorly fitted, with flat reads before Ran was added; inconclusive means other falling curves, or compound fluorescence or quenching; inactive means flat or rising ratio curve;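 note: potency is the fitted concentration of half-maximal effect; % of control where 0% means no effect; nearly all actives have a fitted effect of over 45% in size; -100% = wells without RanGTP and RCC1; the record marks most hits as doubtful in a second field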
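Rango (0.1 uM)–importin beta (0.25 uM) complex; RanGTP-RCC1 trigger; 45 min RT; CFP/YFP FRET read.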
Rango-impB inh – prevents formation of the Rango-importin beta complex. Rango CFP/YFP FRET sensor + importin beta, 45 min. Potency, µM (highest dose often 92.2 µM), for inactives: at the highest dose inhibition of complex formation. 0.031% of 340,000 active. AID 540263. Q14974; active = rising FRET ratio curve, often small or poorly fitted; inconclusive = mostly compound fluorescence or quenching in the first reads; inactive = flat curves in all reads;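 note: potency is the fitted concentration of half-maximal effect; 0% = DMSO wells and 100% = buffer wells lacking importin beta; nearly all actives have a fitted effect of over 15% in size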
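Inhibition scored from the CFP 486 nm/YFP 530 nm FRET ratio 45 min after adding 0.125 microM importin beta to 50 nM Rango biosensor preincubated 5 min with compound (room temperature, PBS with DTT, Tween-20, BSA). No-importin wells as positive control.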
GLA inh pH 4.5 – blocks human alpha-galactosidase A at pH 4.5; 230,000 tested, under 10 active; activity change, negative = inhibition, % at 105 µM; purified enzyme, 4-MU-alpha-Gal fluorescence, pH 4.5; AID 1467; P06280; inconclusive = small, poorly fitted or top-dose-only inhibition, or a rising curve; inactive = flat fitted curve, though single readings scatter; no compound was filed as active;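 note: 0% = full activity with enzyme and -100% = basal without enzyme; dose as in the result columns while the protocol names 77 µM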
Target sequence (P06280 whole entry, looked up): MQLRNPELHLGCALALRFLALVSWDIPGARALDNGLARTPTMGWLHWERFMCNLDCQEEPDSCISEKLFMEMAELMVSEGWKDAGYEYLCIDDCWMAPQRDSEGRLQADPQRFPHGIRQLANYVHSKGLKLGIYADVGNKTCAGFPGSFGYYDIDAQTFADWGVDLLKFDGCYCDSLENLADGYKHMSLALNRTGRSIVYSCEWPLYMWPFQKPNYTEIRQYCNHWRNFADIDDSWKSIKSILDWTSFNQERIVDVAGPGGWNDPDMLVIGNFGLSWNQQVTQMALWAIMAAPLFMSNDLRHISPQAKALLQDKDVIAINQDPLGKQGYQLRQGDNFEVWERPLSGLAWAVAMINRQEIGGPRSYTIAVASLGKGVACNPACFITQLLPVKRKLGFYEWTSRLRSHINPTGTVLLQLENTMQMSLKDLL
miR-21 FLuc – raises the signal of a miR-21 reporter. HeLa miR-21 FLuc reporter, luciferase, 48 h. Potency, µM (top dose mostly 38.3 µM), for inactives: at the top dose reporter change, positive = more light. 340,000 tested, under 10 active. AID 2288; active = well fitted rising curve with a large enough effect; inconclusive = small, poorly fitted or top-dose-only effect; inactive = no such curve, though single readings can be large or run the other way;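 note: % of control where 0% means no effect; miR-21 action dims this reporter so a rising signal means less miR-21 action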
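Using DMEM plus 10% FBS, HeLa miR-21-FLuc cells are incubated with test compounds (final up to about 40uM) for 48 hours; firefly luciferase signal is then imaged following reagent-mediated lysis.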
Active calls of the source: *; ? = inconclusive; nt = not tested or not shown; & = joins results of further samples.

compound	Rango dissoc inh	Rango-impB inh	GLA inh pH 4.5	miR-21 FLuc
CCc1nnc(NC(=O)/C=C/c2ccco2)s1	-17%	?	1	-48%
Oc1ccc(/C=N/Nc2nc(-c3cccnc3)nc3ccccc23)c(O)c1	?	?	-17	-1%
CN(C(=O)CC1C(=O)NCCN1C/C=C/c1ccccc1)C1CCOCC1 (stereo not given)	2%	-4.2%	4	-1%
CCOc1cccc2sc(N(CCCN(C)C)C(=O)c3ccc(S(=O)(=O)N4CCCCCC4)cc3)nc12	-5%	-3.5%	nt	2%
CCn1c(C)cc(/C=C2/SC(=S)NC2=O)c1C	?	?	-8	-63%
N#CC1(c2ccc(NC(=O)c3ccccc3F)cc2)CCCC1	-1%	6.4%	-10	-35%
COc1ccc(/C=N/NC(=O)c2ccc(CSc3nncn3C)cc2)cc1OC	7%	4.1%	-3	-3%
Cc1cccc(N2CCN(C(=O)CSc3ccc4c(c3)OCCO4)CC2)c1C	12%	-7.5%	nt	nt
Cn1c(NC(=O)Cc2cccc3ccccc23)cc(=O)n(C)c1=O	12%	-3.1%	4	0%
CCCCCCCCNS(=O)(=O)CCNCc1ccccc1OC	20%	-3.5%	nt	nt
Cc1cc(C)nc(N2C(=O)CC(Cc3ccc(Cl)cc3)C2=O)n1 (stereo not given)	4%	0.3%	-10	1%
O=C(CCc1nc2ccccc2[nH]1)NCc1ccc2c(c1)OCO2	-10%	-2.1%	8	-3%
COCCSc1ccccc1C(=O)NCc1cccnc1	-1%	-1.7%	3	3%
CCOC(=O)c1cn(CC)c2cc(N3CCOCC3)c(F)cc2c1=O	2%	5.8%	3	-3%
COc1ccc(-n2ncc3c(NCC(C)C)ncnc32)cc1	-13%	?	2	-16%

compound	Rango dissoc inh	Rango-impB inh	GLA inh pH 4.5	miR-21 FLuc
Cc1ccc2[nH]c(CNC(=O)C3CCCCC3)cc2c1	?	?	nt	-17%
COc1ccc([N+](=O)[O-])cc1NC(=O)C1(c2ccccc2)CCOCC1	18%	2.5%	-1	8%
CCC(C)NC(=O)c1ccccc1-c1ccccc1C(=O)NC(C)CC (stereo not given)	27%	0.5%	4	10%
COc1ccccc1N1CCN(C(=O)c2ccc(N(C)S(=O)(=O)c3ccccc3)cc2)CC1	8%	1.8%	nt	17%
COc1cc(/C=C/C(=O)O)cc(OC)c1	-14%	-0.4%	nt	-2%
O=C(c1ccc2c(c1)OCO2)N1CCN(c2cccc(C(F)(F)F)c2)CC1	14%	-4.7%	nt	20%
CC(C)c1ccc(NC(=O)N2CCc3ccccc3C2)cc1	12%	-0.2%	-6	-46%
O=C(NCCCNC(=O)c1cnccn1)c1ccc(Cl)cc1	-15%	3.3%	nt	-2%
CC(=O)O[C@]1(C(C)=O)CC[C@H]2[C@@H]3C=C(C)C4=CC(=O)CC[C@]4(C)[C@H]3CC[C@@]21C	15%	-4.1%	-5	-13%&-10%
CCOC(=O)C1=C(Nc2ccc(C)cc2)CC(C)(O)C(C(=O)OCC)C1c1ccccc1 (stereo not given)	2%	-3.1%	5	0%
Cc1ccc(S(=O)(=O)NNC(=O)C2CCN(Cc3ccccc3)CC2)cc1	-6%	0.3%	-2	-7%
Brc1ccc(-n2cc(-c3ccccc3)c3c(NN4CCOCC4)ncnc32)cc1	10%	-0.1%	-7	-3%
C/C(=N\Nc1ccc(Cl)c(C(=O)O)c1)c1ccc2c(c1)OCO2	-2%	-1.0%	-5	-77%
O=C(Nc1nsc(-c2ccccc2)n1)c1ccncc1	-6%	-1.5%	4	-12%
CC(=O)c1oc2ccccc2c1NC(=O)CN1CCCCC1	13%	-2.0%	-7	-11%

compound	Rango dissoc inh	Rango-impB inh	GLA inh pH 4.5	miR-21 FLuc
Cc1cc(OCC#N)nc(N)n1	?	-2.4%	-11	-3%
COc1ccc(N2CCN(C(=O)CCC(=O)NNc3nc4ccccc4c4nc(C)nn34)CC2)cc1	13%	-0.7%	nt	1%&1%
COc1ccc(S(=O)(=O)NCCC(=O)NC2CCCCCCC2)cc1	-11%	1.4%	-1	-1%
COCCCn1nnnc1SCC(=O)Nc1ccc2c(c1)OCCO2	10%	3.0%	2	-6%
Cc1ccc(-c2cc(-c3n[nH]c(=S)n3C)c3ccccc3n2)cc1	22%	-0.2%	-4	-38%
COc1ccccc1CN1[C@@H](CC(C)=O)c2cc(C(F)(F)F)ccc2S1(=O)=O	2%	-0.6%	nt	nt
Cc1cccc(NC(=O)C2CCCN(c3nc(C)cc(C)n3)C2)c1 (stereo not given)	6%	1.5%	6	3%
COCCN(CCOC)S(=O)(=O)c1ccc(C(=O)Nc2nnc(COC)o2)cc1	-9%	2.3%	7	1%
COc1ccccc1N1CCN(C2CCN(C(=O)COc3ccccc3)CC2)CC1	13%	-5.3%	5	2%
Cn1nc(OCC(N)=O)ccc1=O	-11%	0.5%	4	-3%
CC(NC(=O)c1cc(=O)[nH]c2ccc(Br)cc12)c1ccccc1 (stereo not given)	nt	nt	5	-4%
COc1cc(OC)c(N(C)C(=O)CCNC(=O)Cn2cnc3ccccc3c2=O)cc1Cl	29%	-0.6%	-12	-3%&0%
CCOc1ccccc1N1CCN(c2nc3ccccc3nc2C(C#N)C(=O)OC)CC1 (stereo not given)	-4%	3.2%	-9	-1%
O=C(CSc1nnc2sc3ccccc3n12)c1ccco1	0%	3.1%	6	-61%
O=C(CSc1nc2ccccc2o1)N/N=C/c1ccc(O)c(O)c1	-12%	-1.3%	2	-67%

Full records, looked up by structure. Order of values: Rango dissoc inh, Rango-impB inh, GLA inh pH 4.5, miR-21 FLuc
`COCCCn1nnnc1SCC(=O)Nc1ccc2c(c1)OCCO2` in the list: 10%, 3.0%, 2, -6%
`COc1cc(OC)c(N(C)C(=O)CCNC(=O)Cn2cnc3ccccc3c2=O)cc1Cl` in the list: 29%, -0.6%, -12, -3%&0%
`CC(NC(=O)c1cc(=O)[nH]c2ccc(Br)cc12)c1ccccc1` (stereo not given) in the list: nt, nt, 5, -4%
`COc1ccc(S(=O)(=O)NCCC(=O)NC2CCCCCCC2)cc1` in the list: -11%, 1.4%, -1, -1%

Next section
compound	Rango dissoc inh	Rango-impB inh	GLA inh pH 4.5	miR-21 FLuc
O=S(=O)(NCc1ccco1)c1ccc(Cl)s1	-13%	-1.1%	nt	nt
CNC(=O)NC(=O)C(OC(=O)Cc1cccc(C(F)(F)F)c1)c1ccccc1 (stereo not given)	5%	4.2%	nt	4%
CC(=O)Nc1ccc(S(=O)(=O)NC(CC(=O)O)c2ccc(OC(C)C)cc2)cc1 (stereo not given)	-2%	5.1%	1	-5%
O=C1c2ccccc2C(=O)N1n1cccc1	-3%	0.9%	-1	-8%
Cc1c(/C=N/N=C2\CCC3C4CCc5cc(O)ccc5C4CCC23C)cnn1C (stereo not given)	7%	5.2%	1	0%
COc1ccc(O)c(C(=O)c2cc(C#N)c(=O)n(CCN3CCOCC3)c2)c1	-12%	?	-9	-2%
Cc1ccccc1N1CC(C(=O)Nc2ccc(S(=O)(=O)N3CCCCC3)cc2)CC1=O (stereo not given)	5%	0.8%	nt	10%
CC1(C)CC(=O)C=C(Nc2ccc(Br)cn2)C1	-2%	5.7%	4	3%
Nc1ccc(S(=O)(=O)NC2=NCCCCC2)cc1N	-7%	2.6%	-2	-15%
C/C(=N\NC(=S)NCc1ccccc1)c1ccc2c(c1)OCCO2	-13%	-2.9%	0	-11%
COc1ccc(/C=C/c2cc[n+](C(=O)Cc3ccccc3)cc2)cc1	?	?	-11	29%
COC(=O)c1c(C)[nH]c(C(=O)/C=C/c2cccc(Cl)c2)c1C	9%	-1.1%	-15	-34%
CC(C)C[C@H]1CN=C(Nc2ccccc2)N1CC1CCC1	-5%	4.0%	nt	-1%
O=C(COC(=O)/C=C/c1ccc(Cl)cc1Cl)NCC1CCCO1 (stereo not given)	1%	?	nt	nt
CCC1(CC)NC(=O)N(CC(=O)N2CCc3ccccc32)C1=O	-12%	0.7%	nt	nt

compound	Rango dissoc inh	Rango-impB inh	GLA inh pH 4.5	miR-21 FLuc
O=C(Cn1nc(Cc2cccnc2)c2ccccc2c1=O)NCc1ccc2c(c1)OCO2	-4%	1.4%	9	0%
COc1ccc(-c2nnc(SCC(=O)c3cccs3)n2-c2ccc(Cl)cc2)cc1	-3%	-2.7%	-10	2%
CCc1nnc(NC(=O)c2ccc3nc(CC)c(CC)nc3c2)s1	10%	-3.1%	6	3%
COc1ccc(C2(CNC(C)=O)CCCC2)cc1OC	7%	-1.1%	0	-2%
Nc1ncnc2c1ncn2[C@@H]1O[C@H](CNC(=O)[C@@H]2C[C@H](F)CN2)[C@@H](O)[C@H]1O	-12%	-3.8%	nt	nt
COC(=O)c1c(NC(=O)C(Cl)Cl)sc2c1C(C(=O)OC)CC2 (stereo not given)	3%	-2.7%	-12	15%
COc1ccc(CCC(C)N2CCc3ccccc3C2)cc1 (stereo not given)	1%	4.1%	nt	9%
O=C(CCC1COc2ccccc2O1)Nc1ncccc1O (stereo not given)	2%	-3.2%	-2	-12%
Cc1ccccc1CN(C)CC(=O)Nc1ccccc1-c1ccccc1	3%	-4.6%	-7	-5%
Cc1[nH]c(=O)[nH]c(=O)c1/C=N/NC(=O)[C@@H](NC(=O)OC(C)(C)C)C(C)C	16%	-2.8%	8	0%
Cc1cc(N2CCOCC2)n2nc(-c3cccc(F)c3)cc2n1	?	?	7	-23%
N#CCSc1nnc(-c2sc3ccccc3c2Cl)o1	-9%	1.6%	9	15%
Cc1ccc(-c2ccnc3[nH]n(-c4ccccc4)c(=O)c23)cc1	-7%	-0.1%	nt	-5%
COc1ccc(CCNCC(=O)Nc2ccc(OC(F)(F)F)cc2)cc1OC	12%	0.2%	nt	-7%
CCOc1ccc(C2=NNC(c3cccs3)=Nc3ccc(OC)cc32)cc1OCC	-2%	5.3%	-22	-67%

compound	Rango dissoc inh	Rango-impB inh	GLA inh pH 4.5	miR-21 FLuc
CCC(C)N(C(=O)CSc1nnc2ccccn12)C1CCS(=O)(=O)C1 (stereo not given)	12%	-1.6%	nt	nt
CCC(Nc1nc(-c2ccccc2)nc2ccccc12)C(=O)O (stereo not given)	-6%	3.5%	-1	1%
CCc1ccc2nc(N)sc2c1	1%	1.5%	4	-33%
Cc1c(Cl)cccc1NC(=S)NC1CC1	15%	1.9%	4	-4%
O=C(c1cccc([N+](=O)[O-])c1)c1cc2ccccc2o1	6%	0.5%	8	-4%
CN(CC(=O)Nc1ccc(F)cc1)C(=O)c1ccc(OCc2ccccc2)cc1	2%	9.5%	nt	nt
COc1ccc(-n2c(SCC(=O)Nc3ccc(C(N)=O)cc3)nc3ccccc3c2=O)cc1OC	-5%	-0.8%	nt	0%
N#CCN1C(=O)C(=O)N(Cc2cccc(C(F)(F)F)c2)C1=O	13%	-6.6%	nt	-3%
CCOC(=O)C1(CCOC)CCN(Cc2ccc(C(=O)OC)cc2)CC1	1%	-5.3%	-11	-17%
CCOc1ccc(N(Cc2cc3cc(C)ccc3[nH]c2=O)S(=O)(=O)c2ccccc2)cc1	1%	-0.7%	nt	-3%
CCC(C)COC(=O)c1ccc(C(=O)O)cc1 (stereo not given)	11%	-1.5%	-3	-17%
CCOC(=O)C1=C(CSc2nc(C)cc(C)c2C#N)OC(N)=C(C#N)C1c1cccs1 (stereo not given)	-23%	?	4	-2%
NC(=O)c1ccccc1OCCOCCOCCOc1ccccc1C(N)=O	-19%	-0.9%	0	-2%
COc1cccc(NC(=O)c2ccccc2F)c1	-4%	-4.7%	nt	nt
CNc1nc(Cl)nc(Nc2ccccc2)n1	3%	-0.1%	-4	-45%
O=C(CCS(=O)(=O)c1ccc(Cl)cc1)N1CCN(c2ccc(F)cc2)CC1	4%	0.7%	nt	nt

Some of the compounds tested, so the mix of outcomes need not match the whole.
